TRPML1 blocker = blocks the human TRPML1 channel. TRPML1-inducible cells, Ca2+ dye fluorescence, FDSS; active compounds read low; inhibition of EC80 agonist-evoked calcium signal. activity change, negative = inhibition, % (test concentration not listed). hit rate 0.02% among 390,000. AID 624415; in the data active means activity change below about -50%; inconclusive means about -30% to -50%; inactive means above about -30%;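 note: stimulus is agonist 54-4 at its EC80 concentration; % is set by controls: 0 for no effect and ±100 for the full control effect; compound concentration not given in the record; the text of the record puts the active cut at -80%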
Target sequence (Q9GZU1 whole entry, looked up): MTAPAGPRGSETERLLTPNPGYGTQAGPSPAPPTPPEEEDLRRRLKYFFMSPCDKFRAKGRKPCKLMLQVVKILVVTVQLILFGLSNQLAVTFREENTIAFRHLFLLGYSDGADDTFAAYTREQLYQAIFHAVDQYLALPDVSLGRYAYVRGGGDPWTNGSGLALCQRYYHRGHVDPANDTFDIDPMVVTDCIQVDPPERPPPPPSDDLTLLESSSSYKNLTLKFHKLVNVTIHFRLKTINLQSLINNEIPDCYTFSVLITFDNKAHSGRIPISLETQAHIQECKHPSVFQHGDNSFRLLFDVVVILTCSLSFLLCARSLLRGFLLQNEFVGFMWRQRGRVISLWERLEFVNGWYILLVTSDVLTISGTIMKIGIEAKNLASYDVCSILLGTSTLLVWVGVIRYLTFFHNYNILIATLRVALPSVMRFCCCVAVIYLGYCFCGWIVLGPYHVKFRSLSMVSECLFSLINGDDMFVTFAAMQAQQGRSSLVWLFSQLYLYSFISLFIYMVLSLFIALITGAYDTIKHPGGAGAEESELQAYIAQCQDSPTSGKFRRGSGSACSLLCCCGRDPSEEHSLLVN
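Tet-induced TRPML1-DL cells loaded with Ca8 no-wash calcium dye were read kinetically on FDSS. Compound addition was followed by EC80 agonist 54-4 (4 uM final); inhibition was read over 110 s.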
ClpP mod = qHTS Assay for Activators of ClpP; ATP-dependent Clp protease proteolytic subunit (Bacillus subtilis (strain 168)), P80244; purified B. subtilis ClpP, FRET peptide cleavage, 20 min; Potency, µM (highest dose often 57.5 µM), without a hit: at the highest dose activity change, negative = active; hit rate 1.9% among 340,000; AID 651965, 2013; active = well fitted falling curve with a large enough effect; inconclusive = small, poorly fitted or top-dose-only effect; inactive = no such curve, though single readings can be large or run the other way; note: potency is the fitted concentration of half-maximal effect; the source files actives as falling curves though it sought activators and does not explain the sign; nearly all actives have a fitted effect of over 65% in size; many hits overshoot -100%
Target sequence (P80244 whole entry, looked up): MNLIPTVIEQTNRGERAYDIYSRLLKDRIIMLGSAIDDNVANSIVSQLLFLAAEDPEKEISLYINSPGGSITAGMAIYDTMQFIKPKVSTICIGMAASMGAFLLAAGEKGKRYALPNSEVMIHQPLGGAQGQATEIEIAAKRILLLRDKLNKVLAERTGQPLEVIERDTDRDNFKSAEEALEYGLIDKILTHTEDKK
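FRET quenching reversal measured ClpP activation: 10 microg/mL B. subtilis ClpP at pH 8 with the FRET-FV decapeptide, read at 430 nm after 320 nm excitation. The 20-min minus 0-min signal was scaled between DMSO/no-enzyme wells and ADEP (5.8 microM final).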
Menin-MLL FL inh = menin-MLL binding inhibition, fluorescein peptide. Fluorescence polarization, fluorescein-MLL peptide displacement from menin. AID 1766. 290,000 tested, under 10 active. FP activity change, % at 61.4 µM; inconclusive = falling polarisation curve, or a change in total fluorescence; inactive = total fluorescence flat and polarisation flat or rising; no compound was filed as active; the % refers to the polarisation; negative = inhibition;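 note: % of control where 0% means no effect; inhibitors lower the polarisation; unlabelled MLL peptide was the positive control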
TRPML1 agonist = human mucolipin-1 channel agonism; Q9GZU1; TRPML1-expressing cells, Ca2+ dye fluorescence, FDSS; host cell line not named in the record; reference of the full effect not given here; activation, % (no concentration beside the values); hit rate 0.12% among 410,000; in the data active = activation above about 50%; inconclusive = about 30% to 50%; inactive = below about 30%; note: 0% is about no effect; the text of the record puts the active cut at 80%
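Agonist activity was taken from a 110 s kinetic Ca2+ dye read on the FDSS after pinning compounds onto TRPML1-DL cells. The cells were seeded at 1,500/well with Tet inducer, incubated about 16 h, then dye-loaded at room temperature.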
gsp antagonist = gsp mutant antagonism | gsp-mutant cells, cAMP HTRF, 30 min; control for the full effect not named in the record | Potency, µM (highest dose often 76.9 µM), for inactives: at the highest dose activity change, negative = inhibition, hits mostly inhibitors | hit rate 0.4% among 340,000; active = falling curve of any shape with a large fitted effect; inconclusive = falling curve, mostly with a smaller effect; inactive = flat or rising curve; cell line not stated here;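 note: intracellular cAMP measured with PDE inhibitor Ro 20-1724 present during compound exposure; potency is the fitted concentration of half-maximal effect; % is set by controls: 0 for no effect and ±100 for the full control effect; nearly all actives have a fitted effect of over 65% in size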
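G418-selected cells were plated in DMEM/10% FBS for 16-24 h at 37C, then treated with compounds plus the PDE inhibitor […] (300 uM solution added) for 30 min at 37C. Intracellular cAMP was measured by HTRF after 30 min lysis at room temperature.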
gsp ag = agonists of gsp mutant (McCune-Albright syndrome). gsp mutant cells, cAMP HTRF, 30 min; control for the full effect not named in the record. AID 624287. Potency, µM (highest dose often 76.9 µM), without a hit: top-dose activation (cAMP increase), hits mostly activators. hit rate 0.13% among 340,000; active = well fitted activation curve with a large enough effect; inconclusive = small, poorly fitted or top-dose-only effect, or another doubt; inactive = no such curve, though single readings can be large or run the other way; cell line not stated here;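 note: phosphodiesterase inhibitor Ro 20-1724 added with compounds to block cAMP breakdown; potency is the fitted concentration of half-maximal effect; nearly all actives have a fitted effect of over 60% in size; about a fifth of the inactives were tested at one dose only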
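Cells stably selected in G418 were plated at 2000/well, grown 16-24 hr, then given compounds in DMSO with the PDE inhibitor […] (300 uM solution added) for 30 min at 37C; cAMP was read by HTRF.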
Active calls of the source: *; ? = inconclusive; · = not tested or not shown; & = joins results of further samples; [ ] = dose if it differs, or a comment. No enrichment for hits, and some 2.1% of all compounds hit somewhere here.

SMILES	TRPML1 blocker	ClpP mod	Menin-MLL FL inh	TRPML1 agonist	gsp antagonist	gsp ag
COc1ccccc1C(=O)NC(CCSC)C(=O)NCc1ccncc1 (stereo not drawn)	55	-1.7%	·	0.5	3%	29%
COc1ccc2ncc(S(=O)(=O)c3ccccc3)c(N3CCN(c4ccccc4)CC3)c2c1	2	-0.2%	11	0.0	4%	-28%
CCOc1ccc(C(=O)NCc2ccc3c(c2)CCN3C(=O)c2ccccc2)cc1	-13	2.0%	·	0.5	·	·
CCCOc1ccc(-c2c(C(=O)N/N=C/c3ccncc3)nnn2-c2nonc2N)cc1	-10	5.4%	-2.0	-0.6	-14%	-35%
Cc1ccc(NC(=O)c2ccc3c(=O)n4nc(Nc5ccccc5C)sc4nc3c2)cc1C	-10	-5.5%	·	1.3	·	·
CCCCCN(C(=O)NC(=O)Nn1cnnc1)S(C)(=O)=O	-1	-2.5%	-1.5	-0.1	2%	-6%
CCOC(=O)C(C)Sc1nc2c(c(=O)[nH]c(=O)n2C)n1C/C=C(/C)Cl (stereo not drawn)	12	0.4%	0.8	2.1	-5%	-9%
N#Cc1ccc(OCC(=O)OCC(=O)Nc2ccc(N3CCOCC3)cc2)cc1	-17	·	·	-0.1	-15%	9%[15.4 µM]
CC1=C(C(=O)O)N2C(=O)C(NC(=O)c3nn(C)c(C)c3Cl)C2SC1 (stereo not drawn)	-16	2.7%	-1.3	2.9	18%	-18%
COc1ccc(C)cc1S(=O)(=O)N(CC(=O)O)c1ccc(F)cc1	12	21%	-1.4	-0.3	-5%	-16%
O=C(CSc1nnc(Nc2ccccc2F)s1)Nc1cccc(S(=O)(=O)N2CCCCC2)c1	-17	-0.4%	-0.2	-1.0	-19%	9%[15.4 µM]
O=C(C(c1ccccc1)c1ccccc1)N1CCN(CCN2C(=O)c3cccc4cccc(c34)C2=O)CC1	29	-11%	9.1	0.3	-15%	-28%
COc1cccc(CNC(=O)COC(=O)CN(C)S(=O)(=O)c2ccc(NC(C)=O)cc2)c1	21	-10.0%	·	-0.4	-3%	3%[15.4 µM]
CCCC(O)(c1ccccc1)C(c1ccccc1)c1ccccn1 (stereo not drawn)	-17	·	·	2.5	-3%	?
CCc1nc2ccc(C(=O)NCc3cc(OC)ccc3OC)cc2nc1CC	34	0.4%	·	1.4	·	·
Cc1ccccc1NC(=O)C(NS(=O)(=O)c1ccc2c(c1)c(=O)n(C)c(=O)n2C)c1ccccc1 (stereo not drawn)	10	-1.6%	1.0	-0.8	-8%	?
Cc1ccccc1NC(=O)CSc1nc2ccc(NC(=O)CCc3ccccc3)cc2s1	18	-12%	·	-0.7	·	·
O=C(CSc1ccc(Cl)cc1)NC(=O)NCc1ccco1	26	1.3%	1.5	-1.1	5%	0%[15.4 µM]
O=C(CN1C(=O)c2ccccc2C1=O)NCc1ccc(F)cc1	-15	2.1%	2.1	-0.3	5%	-5%[15.4 µM]
COc1ccccc1OCC(=O)Nc1ccncc1	-12	1.9%	-8.6	-0.8	-3%	-47%[inhibitor]
O=C(O)C1C2C=CC(C2)C1C(=O)NCc1ccccc1F (stereo not drawn)	0	·	-0.5	-0.3	-6%	-32%[inhibitor]
O=C(NCc1ccccn1)C(=O)NCC1OCCN1S(=O)(=O)c1ccc(Cl)cc1 (stereo not drawn)	4	1.7%	·	0.2	10%	3%[15.4 µM]
CCOC(=O)c1oc2ccc(Cl)cc2c1NC(C)=O	-9	?	-1.7	-0.3	5%	1%
O=C(/C=C/c1ccccc1Cl)Nc1ccccc1	-4	·	2.0	5.6	-12%	27%
COCc1cc(C)nc2sc3c(=O)n(-c4ccccc4C(F)(F)F)nnc3c12	-10	0.6%	·	-0.5	·	·
Further results
SMILES	TRPML1 blocker	ClpP mod	Menin-MLL FL inh	TRPML1 agonist	gsp antagonist	gsp ag
COC(=O)C1=C(C)N(c2ccc(C)c(C)c2)/C(=C/c2cccs2)C1=O	9	-1.5%	4.9	0.5	4%	-10%
CN(C(=O)COC(=O)c1ccc([N+](=O)[O-])cc1N)c1ccccc1	4	-0.2%	5.6	-1.6	-5%	-5%[15.4 µM]
COc1ccc(C)cc1NC(=O)c1sc2ncn(CC(=O)N3CCCCC3)c(=O)c2c1C	9	0.4%	2.2	-0.8	9%	9%
COc1ccc(-n2c(Cc3cccn3C)nnc2SCC(=O)Nc2ccc(F)cc2F)cc1	21	3.3%	2.7	2.6	-18%	-19%
Nc1ccc(OCc2ccccc2)cc1	12	-3.1%	0.7	0.3	6%	-34%[inhibitor]
Cc1cc(C)c2c(-n3cccc3)c(C(=O)NNS(=O)(=O)c3ccc(Cl)cc3)sc2n1	-7	0.4%	-2.7	6.2	-6%	1%
O=C(NCc1cccc(F)c1)c1ccc(N2C(=O)Cn3c(cc4sccc43)C2=O)cc1	11	-1.2%	4.3	0.2	12%	5%[15.4 µM]
O=C(CSc1ccsc1[N+](=O)[O-])NCCc1ccc(Cl)cc1	-8	-0.5%	4.7	-0.3	0%	-8%
C=CCNc1nc(C(=O)OCC(=O)c2ccc(F)cc2)cs1	16	·	·	0.6	4%	4%[15.4 µM]
CN(CC(=O)Nc1ccccc1N1CCCC1)S(=O)(=O)c1ccc(F)cc1	20	·	·	2.6	-7%	33%[15.4 µM]
COc1ccc(CNC(=O)CN2C(=O)C(C)N(c3ccc(C)cc3)C2=O)cc1 (stereo not drawn)	-18	-3.1%	0.0	1.1	-11%	3%
N/C(=N\OC(=O)CCCc1ccccc1)c1ccccc1Cl	3	0.2%	·	0.9	12%	?
COc1ccc(OC)c(-c2csc(NC(=O)c3ccccc3F)n2)c1	41	-4.6%	4.2	1.9	-37%	5%
CC(C)=CC(=O)OCC(=O)Nc1ncc(Cl)c(C)c1Cl	-11	-0.9%	?	-0.5	-23%	12%
CCN1C(=O)C(CC(=O)Nc2ccc(OC)cc2)N(Cc2cccs2)C1=S (stereo not drawn)	-4	-2.0%	-0.4	-0.3	-20%	-1%
COc1ccc(-c2nnn(Cc3ccccc3)n2)cc1	-4	0.8%	1.6	-0.2	4%	0%[15.4 µM]
CN(C)c1cc(-c2ccc(Cl)c(Cl)c2)oc(=O)c1Cl	1	0.2%	0.6	0.2	0%	1%
O=[n+]1c2c(n([O-])c3c1CCCC3)CCCCC2	-8	-0.3%	4.3	-0.6	7%	0%
CCn1c(=O)c(=O)[nH]c2cc(C(=O)NC3CCCc4ccccc43)ccc21 (stereo not drawn)	22	32µM*	1.8	2.0	1%	-66%[inhibitor]
Cc1noc(C)c1COC(=O)c1ccc(F)c(S(=O)(=O)N2CCCCC2)c1	44	0.6%	-1.9	1.3	-9%	1%
Cc1cccnc1NC(=O)CCC(=O)c1cccs1	?	-8.5%	·	1.5	8%	?
COc1ccc(-c2csc(NC(=O)CSCC(=O)Nc3cc(C)on3)n2)c(OC)c1	1	1.2%	·	-0.4	-17%	-45%[inhibitor]
CCCCC(=O)Nc1ccc(Cl)cn1	5	1.3%	-1.0	0.1	5%	-38%[inhibitor]
O=C1S/C(=C\C=C\c2ccco2)C(=O)N1c1ccccc1	-11	·	19	-0.4	-11%	28%[15.4 µM]
CC(C)CCC1(CCO)C(=O)N=C(N)NC1=O (stereo not drawn)	-3	-0.1%	·	0.9	6%	10%[15.4 µM]
Remaining list, next part
SMILES	TRPML1 blocker	ClpP mod	Menin-MLL FL inh	TRPML1 agonist	gsp antagonist	gsp ag
CCN1CCN(c2nnc(-c3ccc(C)cc3)c3ccccc23)CC1	21	-0.4%	-0.1	-0.3	1%	2%
CCC(C(=O)NC(C)(C)C)N(Cc1cccs1)C(=O)CNS(=O)(=O)c1ccccc1 (stereo not drawn)	17	-0.3%	6.6	1.1	-1%	-69%[inhibitor]
Cn1c(SCC(=O)NC2CC2)nnc1-c1ccccc1Cl	4	·	·	0.1	7%	-8%[15.4 µM]
COc1cc(CN(C(=O)c2cccc(Cl)c2)c2ccccn2)cc(OC)c1OC	-9	-0.2%	·	-0.6	·	·
Cc1ccc(S(=O)(=O)N2CCC(c3nnc(SCCN4CCCC4)n3C)CC2)cc1	-4	·	-4.4	-0.3	·	18%[15.4 µM]
O=[N+]([O-])c1ccc(-[n+]2ccc3ccccc3c2)c([N+](=O)[O-])c1	-17	0.2%	·	3.1	2%	·
CC(C)Oc1ccc(C(=O)Nc2ccc(C(F)(F)F)n(C)c2=O)cc1	2	·	-0.4	-0.3	13%	-34%
CCc1ccc(NS(=O)(=O)c2ccc(C)c(C(=O)N3CCOCC3)c2)cc1	1	0.6%	·	-0.5	15%	14%
CCSc1nnc2nc3[nH]c4c(C)cccc4c3nn12	21	·	2.3	-0.5	-5%	?
O=C1NCCCC1C(=O)N/N=C/c1ccccc1[N+](=O)[O-] (stereo not drawn)	-10	·	-1.0	-1.0	6%	?
[O-][n+]1cccc2ncc3cscc3c21	2	-7.8%	0.9	-0.8	10%	19%
COc1ccc(S(=O)(=O)N2CCC(C(=O)NC3CC3)CC2)cc1Cl	-19	-1.2%	-1.0	-0.2	-3%[15.4 µM]	16%
CCOC(=O)C1=C(C)NC(C)=C(C(=O)OCC)C1c1cccc([N+](=O)[O-])c1	-4	-0.7%	·	2.0	·	-33%[inhibitor]
Cc1c(Cl)cccc1NC(=S)N=Nc1c(O)n(CN2CCOCC2)c2ccccc12	-6	·	-2.0	1.1	-12%	2%
CCOC(=O)c1cnc2c(C)cc(Cl)cc2c1NCCCN1CCOCC1	7	·	2.6	-0.2	?	-4%
O=C(NC1CCN(Cc2ccccc2)CC1)c1ccccc1F	5	-0.5%	2.9	0.9	6%	0%
O=C1c2ccsc2SCCN1Cc1ccc(Cl)cc1	3	-2.8%	6.5	1.0	-6%[15.4 µM]	-18%
CCCCCOC(=O)CSc1nc2c(c(=O)[nH]c(=O)n2C)n1CCc1ccccc1	9	2.1%	-3.0	1.4	-15%[15.4 µM]	-8%
COc1cc(NC(=O)NCC2CCN(Cc3ccc(C)cc3)CC2)cc(OC)c1OC	8&-4	1.8%&-0.6%	-5.5	-1.2&-0.8	-1%	-1%[15.4 µM]
COC(=O)c1ccc(CSc2nnc(NC(=O)C3CC(=O)N(c4ccc5c(c4)OCCO5)C3)s2)cc1 (stereo not drawn)	4	0.7%	4.7	-0.4	-8%	-43%[inhibitor]
CC1(C)SCC2C(=O)N3C(CSC3(C)C)C(=O)N21 (stereo not drawn)	-2	-0.9%	-4.4	3.4	10%	?

Retrieved one by one from the entries so far, 2 records:
SMILES	TRPML1 blocker	ClpP mod	Menin-MLL FL inh	TRPML1 agonist	gsp antagonist	gsp ag
CCOC(=O)C1=C(C)NC(C)=C(C(=O)OCC)C1c1cccc([N+](=O)[O-])c1	-4	-0.7%	·	2.0	·	-33%[inhibitor]
CCC(C(=O)NC(C)(C)C)N(Cc1cccs1)C(=O)CNS(=O)(=O)c1ccccc1 (stereo not drawn)	17	-0.3%	6.6	1.1	-1%	-69%[inhibitor]

Compound activity from PubChem BioAssay.
